Compound activity as filed in PubChem BioAssay.
Sa growth inh – blocks Staphylococcus aureus growth | S. aureus RN4220 growth, OD600, 20 h, 42 °C; active compounds read low | relative growth, % (concentration not given with the values) | 170,000 tested, 0.53% active | AID 720641;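 active = growth at 42 °C up to 50% and 20 or more points under that at 30 °C, or under 10% at both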;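 note: 300 nL library stock went into each well; scaled to the means of positive and negative controls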
HCMV NEC inh – inhibitors of HCMV UL50-UL53 nuclear egress complex interaction; HTRF UL50-UL53 interaction, normalized percent inhibition; inhibition, % (test concentration not listed); 190,000 tested, 0.15% active;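 active = both replicates at 50% or more, plus weaker picks with an unusually low signal ratio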;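 note: stock transfer was 100 nL into about 20 µL; 0% = negative control wells and 100% = wells with untagged competitor protein; inactives centre near -12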
GIV Gai3 FP – inhibitors of GIV GBA-motif binding to rat Galpha-i3; Galpha-i3/FITC-GIV peptide fluorescence polarization, 90 min; active compounds read low; scaled: aluminum fluoride 0%, vehicle 100%; percent of control (FP), % (no concentration beside the values); 210,000 tested, 0.42% active; AID 1224905;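 active = replicate mean at 85% of control or lower, very high polarization wells dropped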;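 note: wells of about 15 µL received 100 nL stock; the first replicate is given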
Target sequence (P08753 whole entry, looked up): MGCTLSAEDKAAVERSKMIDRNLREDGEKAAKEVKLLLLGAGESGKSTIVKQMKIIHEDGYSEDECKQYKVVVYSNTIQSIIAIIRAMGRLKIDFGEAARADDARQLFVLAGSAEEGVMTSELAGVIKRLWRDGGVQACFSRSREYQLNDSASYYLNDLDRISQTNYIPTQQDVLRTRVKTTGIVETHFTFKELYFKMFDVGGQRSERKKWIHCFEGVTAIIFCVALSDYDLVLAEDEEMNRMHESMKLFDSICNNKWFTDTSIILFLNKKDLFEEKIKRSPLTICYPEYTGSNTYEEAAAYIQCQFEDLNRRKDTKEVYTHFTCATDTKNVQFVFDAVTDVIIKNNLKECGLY
Sa growth inh second temp – recorded beside Sa growth inh, whose call it bears; relative growth, %; measured here: growth at 30 °C;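 optical density after 20 h as mean of two plates; 100% = untreated growth and lower means inhibition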
Starred values were filed as active, the others as inactive. Outcome played no part in choosing rows, and some 0.85% of all compounds hit somewhere here.

Screening CC(C)(O)C1Cc2cc(/C=C/C(=O)O)c(O)cc2O1 (stereo not given) returned Sa growth inh 65.2, HCMV NEC inh -49.1, GIV Gai3 FP 102.5 and Sa growth inh second temp 2.0.
`CC(C)(C)C(=O)CSc1cccc2cccnc12` gave Sa growth inh 130.3, HCMV NEC inh -32.5 and Sa growth inh second temp 82.7.
CC(=O)Nc1ccc(S(=O)(=O)N2CCN(C)c3ccccc32)cc1 was read as HCMV NEC inh -10.1 and GIV Gai3 FP 115.1.
`Cc1ccc(C)c(CN2CCN(c3ncc(C(F)(F)F)cc3Cl)CC2)c1` gave Sa growth inh 108.1, HCMV NEC inh 1.0 and Sa growth inh second temp 94.4.
For Cc1ccc(NC(=O)C(NS(=O)(=O)c2ccc3c(c2)CCC(=O)N3)c2ccccc2)cc1C (stereo not given) the results were Sa growth inh 99.5, HCMV NEC inh -19.2, GIV Gai3 FP 102.0 and Sa growth inh second temp 83.9.
Screening COc1ccccc1NC(=O)CN1N=NC2C(=O)N(c3ccc(C(C)C)cc3)C(=O)C21 (stereo not given) returned HCMV NEC inh -40.8 and GIV Gai3 FP 98.7.
Screening COc1cc(-c2nc3ccccc3c(=O)[nH]2)cc(OC)c1OC returned Sa growth inh 108.9, HCMV NEC inh 0.0, GIV Gai3 FP 102.0 and Sa growth inh second temp 95.9.
Cc1c(C(=O)N2CCOCC2)sc2ncnc(N3CCN(C)CC3)c12 was read as HCMV NEC inh -19.6 and GIV Gai3 FP 102.4.
COc1ccc(CCNC(=O)Cn2c(=O)c(C)nc3ccccc32)cc1OC was read as HCMV NEC inh -48.3 and GIV Gai3 FP 116.6.
Screening O=C(Nc1ccccc1Cl)c1cc2c(s1)-c1ccccc1S(=O)(=O)C2 returned Sa growth inh 96.3, GIV Gai3 FP 105.0 and Sa growth inh second temp 100.6.
CCn1c(=O)c2ccccc2n(Cc2cccc(Cl)c2)c1=O was read as Sa growth inh 103.1, HCMV NEC inh -3.3, GIV Gai3 FP 99.9 and Sa growth inh second temp 85.6.
Screening CCN1CCN(C(=O)NC(C(=O)N[C@@H]2C(=O)N3[C@@H]2SC(C)(C)[C@@H]3C(=O)O)c2ccccc2)C(=O)C1=O (stereo not given in full) returned Sa growth inh -0.3*, HCMV NEC inh 16.4 and Sa growth inh second temp 0.5*.
For CCOc1ccccc1-c1nnc(SCc2ccc(Cl)cc2)o1 the results were Sa growth inh 124.3, HCMV NEC inh 8.3, GIV Gai3 FP 108.1 and Sa growth inh second temp 98.7.
For COc1cccc(NC(=O)CSc2nc(C)c(Cc3ccccc3)c(=O)[nH]2)c1 the results were Sa growth inh 104.9, HCMV NEC inh -7.6, GIV Gai3 FP 102.3 and Sa growth inh second temp 82.9.
COc1ccc(-n2c(=O)c3c(c4cc(OC)ccc4n3C)n(Cc3ccccc3)c2=O)cc1 was read as HCMV NEC inh 2.7 and GIV Gai3 FP 101.2.
O=C(O)CSc1c2c(nc3cc(C(=O)NC4CCCCC4)ccc13)CCCC2 was read as Sa growth inh 77.0, HCMV NEC inh -7.5, GIV Gai3 FP 100.4 and Sa growth inh second temp 92.0.
For OC(COc1ccc(Cl)cc1Cl)CN1CCCCC1 (stereo not given) the results were Sa growth inh 111.2, HCMV NEC inh 3.4, GIV Gai3 FP 98.6 and Sa growth inh second temp 67.2.
`NC(=O)C[C@H](NC(=O)c1ccccc1Cl)C(=O)O` gave Sa growth inh 117.5, HCMV NEC inh 5.3 and Sa growth inh second temp 96.7.
For O=C(CSC1CCCC1)c1cccc(C(F)(F)F)c1 the results were Sa growth inh 109.3, HCMV NEC inh -7.3 and Sa growth inh second temp 94.7.
For CCC(C)NC(=O)c1ccc2c(c1)N=C(C)c1cc(C)ccc1S2 (stereo not given) the results were Sa growth inh 104.4, HCMV NEC inh 7.5, GIV Gai3 FP 108.0 and Sa growth inh second temp 97.5.
`O=C1c2ccccc2NC(c2cccc(O)c2)N1O` (stereo not given) gave Sa growth inh 95.1, GIV Gai3 FP 98.4 and Sa growth inh second temp 75.0.
CCN1C(=O)c2ccccc2Sc2ccc(NC(C)=O)cc21 was read as Sa growth inh 97.9, GIV Gai3 FP 112.2 and Sa growth inh second temp 94.6.
For O=C(Cc1ccc(Cl)cc1)NCCn1c(C(F)(F)F)nc2cccnc21 the results were HCMV NEC inh -5.5 and GIV Gai3 FP 108.0.
Clc1ccc2oc(-c3ccccc3)cc(=NCC3CCCO3)c2c1 (stereo not given) was read as Sa growth inh 72.9, GIV Gai3 FP 97.5 and Sa growth inh second temp 25.8.
Screening CCCCN=C1NN=C(c2cc3ccccc3o2)CS1 returned Sa growth inh 110.5, HCMV NEC inh -48.2 and Sa growth inh second temp 68.8.
For CCc1ccc(-n2c(=O)c3c4c(sc3n(CC(=O)N3CCCCC3CC)c2=O)CCC4)cc1 (stereo not given) the results were Sa growth inh 102.5, HCMV NEC inh -4.8, GIV Gai3 FP 104.4 and Sa growth inh second temp 95.5.
For c1cn2cc(CSC3CCCCC3)nc2s1 the results were Sa growth inh 83.1, HCMV NEC inh -8.7 and Sa growth inh second temp 93.6.
`CS(=O)(=O)c1ccccc1C(=O)Nc1cc(Cl)ccc1-n1cncn1` gave Sa growth inh 111.2, HCMV NEC inh -3.5 and Sa growth inh second temp 88.7.
Screening Cc1nc2cc(C(=O)NCCc3c[nH]c4ccc(Cl)cc34)ccc2n(Cc2ccccc2)c1=O returned HCMV NEC inh -8.2 and GIV Gai3 FP 106.6.
Screening Cc1n[nH]c(=S)n1Cc1ccccc1 returned Sa growth inh 102.3, HCMV NEC inh -9.7 and Sa growth inh second temp 84.2.
Screening CC(C)c1ccc(C2Sc3ccccc3NC3=C2C(=O)c2ccccc23)cc1 (stereo not given) returned Sa growth inh 88.4, HCMV NEC inh -14.0, GIV Gai3 FP 102.5 and Sa growth inh second temp 76.0.
`CCc1ccc(NC(=O)CSC2=Nc3ccccc3C3=NC(CCC(=O)NCc4ccccc4OC)C(=O)N23)cc1` (stereo not given) gave Sa growth inh 90.0, GIV Gai3 FP 99.8 and Sa growth inh second temp 87.5.
Brc1ccc(-c2noc(CSc3ccc(-c4ccccc4)nn3)n2)cc1 was read as HCMV NEC inh -11.2 and GIV Gai3 FP 105.7.
Screening O=C(O)CCc1ccc(OCc2ccccc2)cc1 returned Sa growth inh 99.6, HCMV NEC inh -3.4, GIV Gai3 FP 112.7 and Sa growth inh second temp 94.7.
For COc1nc(C)ccc1-c1noc(-c2ccc(Cl)cc2)n1 the results were HCMV NEC inh -13.9 and GIV Gai3 FP 95.8.
O=c1cc(CSc2nnc(-c3cccnc3)o2)c2cc3c(cc2o1)CCC3 was read as Sa growth inh 85.7, HCMV NEC inh -26.4 and Sa growth inh second temp 95.1.
Screening COc1ccc(OC)c(C2CC(c3ccc(C)cc3)=NN2C(=O)CCC(=O)O)c1 (stereo not given) returned HCMV NEC inh -28.5 and GIV Gai3 FP 104.0.
`Cc1nnc2ccc(N3CCC(C(=O)NC4CCCCC4)CC3)nn12` gave HCMV NEC inh 12.8 and GIV Gai3 FP 96.8.
Screening C/C(=C/c1ccccc1)C(=O)Nc1ccc(S(N)(=O)=O)cc1 returned Sa growth inh 120.6, HCMV NEC inh 0.2, GIV Gai3 FP 106.3 and Sa growth inh second temp 95.5.
For COC(=O)c1cc2occc2n1CC(=O)Nc1ccc(F)cc1F the results were Sa growth inh 98.6, HCMV NEC inh -1.4, GIV Gai3 FP 104.1 and Sa growth inh second temp 91.2.
Screening O=C(CCSCc1ccccc1Cl)NCc1ccccc1Cl returned Sa growth inh 110.3, GIV Gai3 FP 101.6 and Sa growth inh second temp 85.8.
For Fc1ccc(OCc2nnc3sc(-c4ccccn4)nn23)cc1 the results were HCMV NEC inh 7.8 and GIV Gai3 FP 99.5.
For COc1cccc(CNc2ccc3[nH]c(=O)[nH]c3c2)c1OCc1ccc(Cl)cc1 the results were HCMV NEC inh -16.6 and GIV Gai3 FP 103.0.
`N#C/C(=C\c1cn(Cc2ccccc2)c2ccccc12)C(=O)NC1CC1` gave Sa growth inh 86.3, HCMV NEC inh -11.8, GIV Gai3 FP 100.2 and Sa growth inh second temp 89.5.
For COc1ccc(-c2cc(C)no2)cc1S(=O)(=O)N1c2ccccc2CC1C (stereo not given) the results were Sa growth inh 105.2, HCMV NEC inh 27.0, GIV Gai3 FP 108.0 and Sa growth inh second temp 108.0.
`Cc1ccc(NC(=O)N2CCN3CCCCC3C2)cc1F` (stereo not given) gave Sa growth inh 107.3, GIV Gai3 FP 106.0 and Sa growth inh second temp 96.5.
Screening O=C(NCc1cccnc1)c1cc2ccccc2oc1=O returned Sa growth inh 92.9, HCMV NEC inh -72.1 and Sa growth inh second temp 84.6.
Cn1nc(C(=O)N2CCN(c3ccc(Cl)cc3)CC2)c2c1-c1ccccc1SC2 was read as Sa growth inh 110.6, HCMV NEC inh -15.5, GIV Gai3 FP 100.1 and Sa growth inh second temp 96.7.
O=C(Cn1c(=O)c2sccc2n(CC(=O)Nc2ccccc2)c1=O)NCc1ccco1 was read as Sa growth inh 99.2, HCMV NEC inh -2.6, GIV Gai3 FP 98.7 and Sa growth inh second temp 92.4.
`O=S1(=O)CCC(N2CCN(c3ncnc4sccc34)CC2)C1` (stereo not given) gave Sa growth inh 74.0, HCMV NEC inh -8.0 and Sa growth inh second temp 93.0.
`O=C(CCSc1ccc2ccccc2n1)NCCc1ccccc1` gave Sa growth inh 94.2, GIV Gai3 FP 102.3 and Sa growth inh second temp 97.7.
Screening O=C1NCC2=C1C(c1ccccc1O)Nc1ccccc1N2 (stereo not given) returned Sa growth inh 106.5, HCMV NEC inh -4.4, GIV Gai3 FP 104.2 and Sa growth inh second temp 90.0.
Screening O=C(NCc1ccc(F)cc1)c1n[nH]nc1Nc1ccccc1Cl returned HCMV NEC inh -18.2 and GIV Gai3 FP 104.7.
Screening CC(=O)Nc1ccc(C)cc1N=Cc1ccc2c(c1)OCO2 returned Sa growth inh 85.9, GIV Gai3 FP 103.1 and Sa growth inh second temp 84.5.
CCCC(=O)O[C@]1(C(=O)CO)CCC2[C@@H]3CCC4=CC(=O)CC[C@]4(C)C3[C@@H](O)C[C@@]21C (stereo not given in full) was read as Sa growth inh 88.6, HCMV NEC inh -42.1 and Sa growth inh second temp 85.3.
CCOc1ccc(-c2nnc(SCC(=O)NCCc3ccccc3)nc2-c2ccc(OCC)c(OC)c2)cc1OC was read as Sa growth inh 127.2, GIV Gai3 FP 109.8 and Sa growth inh second temp 102.2.
For COc1ccccc1C(=O)N(CC(=O)Nc1ccccc1C(F)(F)F)Cc1ccco1 the results were Sa growth inh 96.7, HCMV NEC inh -10.0 and Sa growth inh second temp 99.5.
`O=C(CN1CCCc2ccccc21)NCCc1ccc(F)cc1` gave Sa growth inh 113.0, HCMV NEC inh -5.3 and Sa growth inh second temp 102.7.
O=C(CN1C(=O)C2CC=CCC2C1=O)N1CCN(S(=O)(=O)c2ccc3c(c2)OCCCO3)CC1 (stereo not given) was read as Sa growth inh 101.2, HCMV NEC inh -15.0 and Sa growth inh second temp 91.0.
COc1ccccc1N1CCN(C(=O)c2cnn(-c3ccc(F)cc3F)c2C2CCNCC2)CC1 was read as Sa growth inh 90.9, GIV Gai3 FP 97.8 and Sa growth inh second temp 93.4.
C(=N\Nc1ccc(N2CCOCC2)nn1)/C1=C(N2CCOCC2)C(=C/c2ccccc2)/CC1 was read as Sa growth inh 78.9, HCMV NEC inh -59.4 and Sa growth inh second temp 84.6.
`CCc1ccc(NC(=O)c2ccc(NC(=O)CCS(=O)(=O)c3cccs3)cc2)cc1` gave Sa growth inh 98.2, GIV Gai3 FP 98.4 and Sa growth inh second temp 89.7.

By substructure: the compounds so far containing a COOH group
Screening CC(C)(O)C1Cc2cc(/C=C/C(=O)O)c(O)cc2O1 (stereo not given) returned Sa growth inh 65.2, HCMV NEC inh -49.1, GIV Gai3 FP 102.5 and Sa growth inh second temp 2.0.
Screening CCN1CCN(C(=O)NC(C(=O)N[C@@H]2C(=O)N3[C@@H]2SC(C)(C)[C@@H]3C(=O)O)c2ccccc2)C(=O)C1=O (stereo not given in full) returned Sa growth inh -0.3*, HCMV NEC inh 16.4 and Sa growth inh second temp 0.5*.
O=C(O)CSc1c2c(nc3cc(C(=O)NC4CCCCC4)ccc13)CCCC2 was read as Sa growth inh 77.0, HCMV NEC inh -7.5, GIV Gai3 FP 100.4 and Sa growth inh second temp 92.0.
`NC(=O)C[C@H](NC(=O)c1ccccc1Cl)C(=O)O` gave Sa growth inh 117.5, HCMV NEC inh 5.3 and Sa growth inh second temp 96.7.
Screening O=C(O)CCc1ccc(OCc2ccccc2)cc1 returned Sa growth inh 99.6, HCMV NEC inh -3.4, GIV Gai3 FP 112.7 and Sa growth inh second temp 94.7.
Screening COc1ccc(OC)c(C2CC(c3ccc(C)cc3)=NN2C(=O)CCC(=O)O)c1 (stereo not given) returned HCMV NEC inh -28.5 and GIV Gai3 FP 104.0.
